Screening data: PubChem, Center for Chemical Genomics, University of Michigan
HIV TAR-Tat – TAR RNA-Tat peptide displacers, HIV-1, primary screen, biochemical, FRET, FAM/TAMRA-labeled Tat; HIV-1 TAR RNA, Tat peptide displacement FRET; hits give high values; z-score (test concentration not listed); 100,000 compounds, 0.6% hits;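 also: score is relative to mean and SD of negative controls; some compounds called inactive have numbers as strong as hits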
CDC25B CDK2 inh – primary biochemical HTRF screen for blockers of M-phase inducer phosphatase 2 binding to CDK2/cyclin A | P30305+P24941 | HTRF CDC25B-CDK2/CyclinA binding, anti-His/anti-Flag; hits give high values | z-score (no concentration beside the values) | 94,000 compounds, 0.72% hits | AID 1259370, 2018;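 also: score is relative to mean and SD of negative controls; strong numbers were not always called active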
Starred values were filed as active, the others as inactive; x = not tested or not shown.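 The calls were made as follows: active = z-score from 3 up in half or more of its runs; inactive = the rest.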

smiles | CDC25B CDK2 inh | HIV TAR-Tat
COc1ccc2c(c1)cc1c(=O)n(CC(=O)NCCCOC(C)C)nc(C)n12 | -1.84 | -1.45
CCOC(=O)COc1ccc2c(=O)c(Oc3ccc(CC)cc3)c(C(F)(F)F)oc2c1 | -1.55 | -0.22
O=C(CCCn1c(=O)c2cccn2c2ccccc21)NCCCN1CCCC1 | x | 2.09
O=C(c1ccc(Br)o1)N1CCN(c2ccc3nncn3n2)CC1 | -2.42 | x
CC(C)CC(=O)Nc1nc2c(s1)C(=O)CC(C)(C)C2 | -0.75 | 0.57
CCOC(=O)CCCCCN1C(=O)S/C(=C/c2ccccc2)C1=S | -1.48 | -0.04
O=C(C1CCCCC1)N1CCN(S(=O)(=O)c2cc(Cl)c(Cl)cc2Cl)CC1 | -1.21 | x
Cn1cc(Cc2nnc(NC(=O)Cc3cccs3)s2)c2ccccc21 | x | 0.54
O=C(CCc1nnc2ccc(N3CCCCC3)nn12)Nc1ccc2c(c1)OCO2 | x | 0.9
Cc1ccc(C2C3=C(CC(C)(C)CC3=O)Nc3ncnn32)cc1 (configuration not stated) | -0.13 | 1.32
Cc1nn(-c2nc3ccccc3[nH]2)c2c1C(c1c(F)cccc1F)CC(=O)N2 (configuration not stated) | x | 1.67
COc1ccc(Cl)cc1N(C)C(=O)c1nn(C)c2c1COc1ccccc1-2 | 0.58 | 1.71
COc1ccc(Cl)cc1N1C(=O)C2CCCN2C1c1ccc(F)c(F)c1 (configuration not stated) | 1.11 | 0.15
CCOCCCNC(=O)c1c(NC(=O)c2csnn2)sc2c1CCCC2 | -1.07 | 0.36
O=C(OCc1cc(=O)n2ccsc2n1)C(c1ccccc1)c1ccccc1 | x | 0.38
CCOC(=O)C1Cn2c(nc3c(c2=O)C(C)(CC)Cc2ccccc2-3)S1 (configuration not stated) | -0.23 | 0.97
COc1cc(C(=O)Nc2ccc3n[nH]nc3c2)cc(OC)c1OC | -3.57 | x
Cc1ccc(-c2nc3c4cnn(Cc5ccccc5)c4ncn3n2)cc1 | -0.95 | 0.21
CCn1c(CC2C(=O)N(Cc3ccccc3)c3ccc(C)cc32)nc2ccccc2c1=O (configuration not stated) | -0.65 | 2.25
Cc1ccc(Nc2cc(C)nc(-n3cc([N+](=O)[O-])cn3)n2)c(C)c1 | x | 0.93
COCCOC(=O)c1cnn2c(C(F)(F)F)cc(-c3ccc(C)cc3)nc12 | 0.22 | 2.08
Cc1ccc(C2Cc3cc(C(=O)Nc4nccs4)ccc3C(=O)O2)cc1 (configuration not stated) | -0.67 | 1.16
Clc1ccc(CCNc2c3c(nc4ncnn24)CCC3)cc1 | x | 1.07
c1ccc(SCc2ccc(-c3csnn3)cc2)nc1 | 0.04 | x
Cc1cc(-c2ccc(S(=O)(=O)N3CCN(c4ccccc4F)CC3)s2)n[nH]1 | x | 0.54
Cc1ccc2nc(Cl)c3cc(C(=O)Nc4cc(C)on4)sc3c2c1 | -1.33 | x
CN(C(=O)CSc1nnc(COc2ccccc2)o1)c1ccccc1 | -0.12 | -0.14
O=C(O)/C=C\C(=O)Nc1ccc2c(c1)Cc1ccccc1-2 | -1.97 | x
Nc1ccc(Oc2ccccc2)cc1 | -0.59 | 0.76
Cc1ccccc1NS(=O)(=O)c1ccc(-c2cnc(C3CC3)o2)cc1 | x | 1.02
N#CCC1(C#N)CCc2ccccc21 (configuration not stated) | -1.55 | x
COc1ccc(-c2cnc(C)o2)cc1S(=O)(=O)N1CCOCC1 | x | 0.76
CCc1ccccc1-n1nnc(-c2nc(-c3ccc(Br)cc3)no2)c1N | x | -0.05
CC(=O)N1CCN(c2ccc(OCC3CO[C@](Cn4ccnc4)(c4ccc(Cl)cc4Cl)O3)cc2)CC1 (some centres not stated) | x | 1.44
CC(=O)CSc1nsc(SCC(C)=O)n1 | -1 | x
CC(C)CCn1c(=O)[nH]c2ccccc21 | -0.88 | 2.04
Cn1c(=O)n(C)c2cc(N3CCOCC3)c(NS(=O)(=O)c3ccc(Br)cc3)cc21 | 0.98 | 1.44
CCOC(=O)C1=C(C)NC(C)=C(C(=O)OCC)C1c1ccccn1 | -1.08 | x
Cc1nn(CC(=O)NC(C)(C)C)c(C)c1S(=O)(=O)N1CCC(C(=O)N2CCCCC2)CC1 | x | 2.68
CC1(C)C(=O)OC(C(=O)c2ccccc2)C2(CCCCC2)C1=O (configuration not stated) | 0.34 | x

Three entries picked at random from those above:
smiles | CDC25B CDK2 inh | HIV TAR-Tat
N#CCC1(C#N)CCc2ccccc21 (configuration not stated) | -1.55 | x
COc1ccc(-c2cnc(C)o2)cc1S(=O)(=O)N1CCOCC1 | x | 0.76
Cn1c(=O)n(C)c2cc(N3CCOCC3)c(NS(=O)(=O)c3ccc(Br)cc3)cc21 | 0.98 | 1.44

(further entries)
smiles | CDC25B CDK2 inh | HIV TAR-Tat
CCC(C)(C)NS(=O)(=O)c1cc2c(cc1C)N(C)CCO2 | x | 3.31
Cc1cccc(OCC(=O)OCc2cc(=O)n3oc(C)cc3n2)c1 | x | 1.49
CN(C)CCN1C(=O)C(O)=C(C(=O)c2cc3ccccc3o2)C1c1cccc(Oc2ccccc2)c1 (configuration not stated) | -2.14 | 0.51
CCOc1cc(C2c3c(n[nH]c3C)C(=O)N2C)ccc1O (configuration not stated) | 0.13 | -0.21
CC(C)(C)c1nnc2sc(-c3cnccn3)nn12 | -0.1 | 0.25
O=C(NCc1ccc2c(c1)OCO2)c1ccc2c(c1)CCN2S(=O)(=O)c1ccc(Cl)cc1 | 1.9 | 2.31
CCOc1ccc(C2Nc3ccccc3S(=O)(=O)N2Cc2ccccc2)cc1 (configuration not stated) | 0.04 | x
COc1ccc(N2CCN(c3oc(/C=C/c4cccs4)nc3C#N)CC2)cc1 | -1.02 | 1.05
C=CCNC(=O)CCCCCn1c(=S)[nH]c2ccccc2c1=O | -1.27 | x
Cc1nn(-c2nc3ccc(Br)cc3s2)c2c1C(c1ccncc1)CC(=O)N2 (configuration not stated) | x | 1.43
Cc1nnc2c(N3CCN(C(=O)c4ccco4)CC3)nc3ccccc3n12 | -1.22 | 2.27
CCCn1c(C)c(C(=O)OCC)c2cc(O)c3ccccc3c21 | -1.41 | 1.92
CCOC(=O)c1c(NC(=O)c2noc(C(C)C)c2[N+](=O)[O-])sc2c1CCCC2 | -1.82 | 2.08
O=C1CCc2cc(S(=O)(=O)Nc3cccc(Cl)c3)cc3c2N1CC3 | x | 1.92
CC(C(=O)Nc1ccc2c(c1)OCCO2)N1Cc2ccccc2C1=O (configuration not stated) | x | 2.24
N#Cc1c(NCc2ccccc2)ncc2c1Nc1ccccc1C2 | 0.94 | -6.81
CN1C(=O)C(C)(C)c2cc(S(=O)(=O)N3CCN(c4cccc(Cl)c4)CC3)ccc21 | x | 1.45
Cc1nc2cc(-c3cccc(F)c3)nn2c(C)c1CCC(=O)NC(C)CCc1ccco1 (configuration not stated) | 0.4 | x
Cc1c(C(=O)NCC2COc3ccccc3O2)oc2ccc(S(=O)(=O)N3CCOCC3)cc12 (configuration not stated) | -1.21 | x
COC(=O)C(Cc1c[nH]c2ccccc12)N=Cc1ccccc1 (configuration not stated) | 0.03 | x
CCOC(=O)c1cc(CSc2n[nH]c(=O)n2-c2ccccc2)on1 | -0.88 | x
COc1cccc(-c2nn3c(-c4ccncc4)nnc3s2)c1 | -0.67 | 0.99
COCCNC(=O)C1CCN(c2nnc(N3CCCC3=O)s2)CC1 | -2.79 | 0.06
Cc1ccc(S(=O)(=O)c2nnn3c2nc(NC(C)C)c2ccccc23)cc1 | -1.24 | -1.06
CCCSc1ncc(Cl)c(C(=O)N(Cc2ccco2)C2CCS(=O)(=O)C2)n1 (configuration not stated) | -2.24 | 2.48
CC(C)c1c(O)ccc2c1CCC1[C@@](C)(C=O)CCC[C@]21C (some centres not stated) | x | 0.29
COc1ccc(NC(=O)CSc2ncc3c(n2)-c2ccccc2N(C)S3(=O)=O)cc1Cl | x | -2.83
CCc1ccc(NS(=O)(=O)c2ccc(/C=C/c3onc(C)c3[N+](=O)[O-])s2)cc1 | x | 0.8
CCc1cc(-c2[nH]ncc2-c2ccc3c(c2)OCCO3)c(O)cc1OC | -1.48 | x
Cc1oc(C)c2c(=O)cc(-c3ccc4c(c3)OCO4)cc(OC(=O)c3cccs3)c12 | -1.27 | 1.28
Cc1ccc(-c2csc3ncn(CC(C)C)c(=O)c23)cc1 | -1.32 | 0.38
Cc1cc2n(n1)CCC(=O)N2CCCC(=O)NCC1CCCO1 (configuration not stated) | x | 2.09
CN(C(=O)c1ccc2c(Cl)c3c(nc2c1)CCC3)c1ccccc1F | -2.84 | x
Cc1ccsc1CCNC(=O)Cn1cnc(S(=O)(=O)N2CCc3ccccc32)c1 | x | -0.06
CC1=NN(c2ccc(C)cc2)C(=O)/C1=C/N(C)C | -1.25 | x
COc1ccc(C2N(c3ccc(C(C)C)cc3)C(=O)N3CCCN23)cc1 (configuration not stated) | 0.4 | 1.43
COc1cccc(Nc2ncnc3c2nc2n3CCCCC2)c1 | x | 0.12
COc1cc2ccccc2cc1C(=O)Nc1nc(-c2cc3ccccc3oc2=O)cs1 | -2.07 | x
COC(=O)COc1ccc2oc(C)c(C(=O)OC(C)C)c2c1 | -2.49 | x
Cc1noc(C(=O)NCC(C)C)c1Cl | -1.6 | -0.16
Nc1cc(=O)n(Cc2ccco2)c(=S)[nH]1 | -0.39 | x
CCS(=O)(=O)N1CCC2(CC1)OC(=O)C(C)=C2C(=O)Nc1ccc(F)cc1 | x | -0.35
CCCN1CCN(c2ncc3c(n2)CCN(Cc2sccc2C)C3)CC1 | x | -0.93
Cc1cc(C)n2c(SC3CCCCC3NS(=O)(=O)c3ccc(Cl)cc3)nnc2n1 (configuration not stated) | -0.32 | 1.32
CC1CCN(C(=O)Cn2c3c(c(=O)n4ncnc24)CCC3)CC1 | -1.32 | -0.34
O=C(COc1ccc(Cl)cc1)NC1CCS(=O)(=O)C1 (configuration not stated) | -0.46 | 0.16
CN1C(C(=O)Nc2cccnc2)=CC(c2cccs2)=NS1(=O)=O | -1.77 | 4.2
COc1cccc2cc(C(=O)O)oc12 | -1.1 | x
CN(C(=O)Cn1c(=O)oc2cc(S(=O)(=O)N3CCCC3)ccc21)C1CCCCC1 | -0.62 | 0.96
CN1C(=O)c2cc(NC(=O)C3CCN(S(=O)(=O)N4CCCC4)CC3)ccc2N2CCN=C12 | x | 0.53

The list goes on:
smiles | CDC25B CDK2 inh | HIV TAR-Tat
COc1ccc(-c2noc(NC(C)CCc3ccccc3)n2)cc1OC (configuration not stated) | x | -0.29
O=C(c1ccccc1)N1CCN(c2nc3cc(Br)ccc3n3cccc23)CC1 | -1.67 | 1.26
O=C(Nc1cccc(F)c1)c1cnn(-c2ccc(Br)cc2)c1 | x | 2.15
CCSCCOC(=O)C1=C(C)NC2=C(C(=O)CC(c3ccccc3Cl)C2)C1c1cccs1 (configuration not stated) | 0.22 | 1.16
CCCCn1c(Cn2ccnc2C)nc2cc(NC(=O)CC(C)C)ccc21 | -1.35 | 0.04
COc1ccc(S(=O)(=O)N2CCN(c3cc(N(C)C)nc(C)n3)CC2)cc1C | 0.06 | 0.68
CCc1ccc(-c2cc(C)no2)cc1S(=O)(=O)N(Cc1ccco1)C1CCCC1 | x | 0.97
CCCNC(=O)COCc1cc(-c2cccs2)on1 | x | 0.19
CCCc1nnc(N2C(=O)c3oc4ccc(F)cc4c(=O)c3C2c2ccc(OCC)cc2)s1 (configuration not stated) | -2.88 | 0.19
COc1ccc(CC(=O)NCc2cc(C)oc2C(F)(F)F)cc1OC | -1.03 | x
CCOC(=O)C1CCCN(CCN(C)C)C1 (configuration not stated) | 0.64 | x
CCOC(=O)Cn1c(C2CC(=O)N(c3cccc(Cl)c3)C2)nc2ccccc21 (configuration not stated) | -0.17 | 0.51
O=C(CS(=O)(=O)c1ccc(Cl)cc1)NOC(=O)c1cc(Cl)cc(Cl)c1 | -0.75 | x
c1ccc2nc(C3=NCCN3)ccc2c1 | -1.24 | x
Cc1c(C(=O)O)cccc1-n1c(C)cc(/C=C2/SC(=S)NC2=O)c1C | -1.02 | x
CC[C@H]1OC(=O)[C@H](C)C(=O)[C@H](C)[C@@H](O[C@@H]2O[C@H](C)C[C@H](N(C)C)[C@H]2O)[C@](C)(OC)C[C@@H](C)C(=O)[C@H](C)[C@@H]2N(CCCCn3cnc(-c4cccnc4)c3)C(=O)O[C@@]21C | x | 2.58
CCOc1ccc(S(=O)(=O)N2CCSC2c2cc(OC)ccc2OC)cc1 (configuration not stated) | -0.51 | -0.76
N#Cc1c(C(F)(F)F)cc(-c2cccs2)nc1SCC(=O)Nc1ccc(C(N)=O)cc1 | -0.62 | x
Cc1ccc2ccc(C(Nc3ccccn3)c3ccccc3C)c(O)c2n1 (configuration not stated) | 0.27 | 1.61
C=CCOc1cccc(C2c3c(oc4ccccc4c3=O)C(=O)N2c2nc(C)c(C(=O)OC)s2)c1 (configuration not stated) | -0.25 | 0.59
Clc1cccc(-n2cc(-c3ccccc3)c3c(NCc4ccco4)ncnc32)c1 | x | 0.92

Grouped by structure: the entries above containing a CF3 group
smiles | CDC25B CDK2 inh | HIV TAR-Tat
CCOC(=O)COc1ccc2c(=O)c(Oc3ccc(CC)cc3)c(C(F)(F)F)oc2c1 | -1.55 | -0.22
COCCOC(=O)c1cnn2c(C(F)(F)F)cc(-c3ccc(C)cc3)nc12 | 0.22 | 2.08
COc1ccc(CC(=O)NCc2cc(C)oc2C(F)(F)F)cc1OC | -1.03 | x
N#Cc1c(C(F)(F)F)cc(-c2cccs2)nc1SCC(=O)Nc1ccc(C(N)=O)cc1 | -0.62 | x
